# RN4220 kill: growth inhibition of S. aureus RN4220, primary screen, OD600; 16 h; inhibition, % (concentration not given with the values); 330,000 tested, 0.33% active;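 active means z-score of -3 or lower and OD600 up to 0.18 on both plates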;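 further: plate controls were untreated cells for no effect and reference antibiotic for full effect; stock transfer was 100 nL into about 80 µL; one replicate is shown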
# ugtP null kill: growth inhibition of ugtP-null S. aureus, primary screen, RN4220 ugtP deletion, OD600; 16 h; some inactives read as strong as hits; growth inhibition, % (concentration not given with the values); 330,000 tested, 0.54% active;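 active means z-score under -3 and OD600 up to 0.15 on both plates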;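 further: plate controls were untreated wells for no effect and antibiotic for full effect; wells of about 80 µL received 100 nL stock; the first replicate is given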
# BJeLR viability: MLPCN primary cell-based screen for lethality selective to Ras in HRASV12 cells | BJeLR (HRASV12) viability, CellTiter-Glo ATP luminescence, 48 h; reference of the scale not given here | inhibition, % (concentration not given with the values) | 300,000 tested, 0.17% active;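 active means replicate mean above 50%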;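 further: 50 nL library stock added to about 25 µL; numbers are from one replicate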
# Autofluor counter: counter-screen for toxin protease inhibitors: compound fluorescence; compound autofluorescence counterscreen, microsphere flow cytometry; hits give high values; fluorescence intensity (concentration not given with the values); 360,000 tested, 3.1% active; AID 624483;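 active means at least 3 SD above the mean of all compounds, about 16000 in these data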;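 further: 100 nL of 1 mM stock went into each well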
# PrP 5UTR inh: inhibition of PrP 5' UTR reporter expression | 340,000 tested, 0.35% active | cell-based PrP 5' UTR mRNA reporter, plate reader | inhibition, % (no concentration beside the values);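 active means every replicate at 50% or more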;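 further: 0 = median of the neutral control wells; tested in H4 reporter cells; numbers are from one replicate; inactives centre near -14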
# Mtb hypoxia inh: PubChem AID 1159583; M. tuberculosis hypoxia-regulated fluorescent reporter, fluorescence; fluorescence inhibition, % (no concentration beside the values); 300,000 tested, 0.1% active;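 active means 35 to 45% if threefold the growth effect, above 45% if 1.5-fold the growth effect; inactive means the rest, general growth blockers included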;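 further: wells of about 50 µL received 100 nL stock; 0% = vehicle wells and 100% = reference inhibitor wells; whole bacteria with a GFP reporter of the hypoxia response; strong numbers were not always called active; many hits fall short of the cut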
# Mtb hypoxia inh growth: also measured in Mtb hypoxia inh; calls as there; growth inhibition, %; measured here: M. tuberculosis growth (absorbance);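 0% = vehicle and 100% = reference antibiotic; read after six days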
# An asterisk follows results filed as active; nt = no result given.
SMILES,RN4220 kill,ugtP null kill,BJeLR viability,Autofluor counter,PrP 5UTR inh,Mtb hypoxia inh,Mtb hypoxia inh growth
CC1=C(C(=O)OCc2ccccc2)C(c2ccc(-c3ccccc3)cc2)NC(=O)N1CCCCCC(=O)O (configuration not stated),12,56,nt,3896,-23,9,8
CCNC(=O)COC(=O)CCC(=O)c1ccc(F)cc1,7.2,4,16,3977,12,-4,5
COCCCNC(=O)C1CCC(CNS(=O)(=O)c2ccc3c(c2)CC(C)N3C(=O)C2CC2)CC1 (configuration not stated),4.1,2,-8,5765,6,9,10
CC1CCCN(CC(=O)NC(=O)NC2CCCCC2)C1 (configuration not stated),0.8,2,nt,4136,-8,4,-5
Cc1ccc(C(=O)Nc2ccc(N3CCOCC3)nc2)cc1,0.4,0,2,9361,-36,4,17
COC(=O)CNC(=O)CN1C(=O)N(c2ccc(Cl)cc2)C(N(O)C(=O)Nc2ccc(Cl)cc2)C1(C)C (configuration not stated),-1.2,-3,0,4723,-21,nt,nt
Cc1ccc(N(CN2CCCC2=O)C(=O)c2ccc(OC(C)C)cc2)cc1,6.8,-2,16,19242*,-9,1,10
Cc1cc(C(=O)NN=Cc2ccc(N(C)C)cc2)c2ccccc2n1,-5.3,2,nt,nt,nt,-3,9
N#C/C(=C\c1c(Cl)cccc1Cl)c1nn(-c2ccccc2)c(-n2cccc2)c1C#N,-1.2,2,-7,3760,-1,4,14
COc1ccc(/C=C/C(=O)Oc2ccc(C=NNC(=O)c3ccncc3)cc2)cc1,-0.1,5,nt,nt,nt,nt,nt
NC(=O)c1nn(-c2ccccc2)c(=O)cc1O,0.1,-3,11,22915*,11,4,13
CC1(C)N=C(/C=N/O)CN1O,nt,nt,1,2487,-18,nt,nt
CC(=O)Nc1cccc2c1OCCO2,4.3,-5,-13,9622,-25,3,5
Cc1cc(C)nc(N=C(N)N2CCCCCC2)n1,2.5,3,nt,nt,nt,2,3
CC1(c2ccc(OC(F)F)cc2)NC(=O)N(/N=C/c2c(O)ccc3ccccc23)C1=O (configuration not stated),nt,nt,2,2511,-5,nt,nt
Cc1ccc(CNC(=O)c2ccc(CS(=O)(=O)c3ccccc3)o2)cc1,-0.7,-9,-2,4776,-3,-6,-2
CC(Oc1ccc(S(=O)(=O)N2CCCC2)cc1[N+](=O)[O-])C(=O)N(C)c1ccccc1 (configuration not stated),1.3,6,9,5045,-15,-7,2
Cc1noc(C)c1NC(=O)Nc1cccc2c1O[C@@H](CN(C)Cc1ccc3c(c1)OCO3)[C@@H](C)CN([C@H](C)CO)C2=O,5.9,3,nt,3591,-8,-5,5
CN(CC(=O)Nc1ccc(N2CCOCC2)cc1)C(=O)c1ccc(O)c(Cl)c1,0.0,2,-23,5234,-6,-1,6
COc1ccc(C(=O)/C=C/C(=O)N(CC(=O)NC2CCCCC2)Cc2ccc(F)cc2)c(O)c1,31,23,29,4258,-26,11,7

# In another format: results already given.
structure	RN4220 kill	ugtP null kill	BJeLR viability	Autofluor counter	PrP 5UTR inh	Mtb hypoxia inh	Mtb hypoxia inh growth
N#C/C(=C\c1c(Cl)cccc1Cl)c1nn(-c2ccccc2)c(-n2cccc2)c1C#N	-1.2	2	-7	3760	-1	4	14
Cc1noc(C)c1NC(=O)Nc1cccc2c1O[C@@H](CN(C)Cc1ccc3c(c1)OCO3)[C@@H](C)CN([C@H](C)CO)C2=O	5.9	3	nt	3591	-8	-5	5
CC1(c2ccc(OC(F)F)cc2)NC(=O)N(/N=C/c2c(O)ccc3ccccc23)C1=O (configuration not stated)	nt	nt	2	2511	-5	nt	nt
CC(Oc1ccc(S(=O)(=O)N2CCCC2)cc1[N+](=O)[O-])C(=O)N(C)c1ccccc1 (configuration not stated)	1.3	6	9	5045	-15	-7	2

# Later entries:
SMILES,RN4220 kill,ugtP null kill,BJeLR viability,Autofluor counter,PrP 5UTR inh,Mtb hypoxia inh,Mtb hypoxia inh growth
COCCn1c(SCC(=O)Nc2cc(C)on2)nnc1C(C)C,3.0,12,-5,3521,5,-7,12
O=C(O)/C=C\C(=O)Nc1cccc(C(=O)Nc2cccc(O)c2)c1,1.1,-1,3,3751,-18,3,8
O=C(Nc1cccc(Cl)c1)Nc1cc(S(=O)(=O)N2CCOCC2)ccc1N1CCCC1,3.7,8,9,2363,-13,3,3
CCN=C(NCC)SC1CC(=O)N(c2ccc(OC)cc2)C1=O (configuration not stated),2.3,9,-1,7008,-16,10,7
O=C(CSc1n[nH]c(=O)n1C1CC1)N1N=C(c2ccc(Cl)cc2)CC1c1ccco1 (configuration not stated),0.3,-2,-1,4503,-8,11,-2
O=C1CC(c2c[nH]c3ccccc23)C(=O)N1 (configuration not stated),2.0,-1,-10,9361,-12,4,2
COc1ccc(CNC(=O)COC(=O)/C=C/c2cccs2)cc1,-1.2,13,-4,1903,-7,11,0
Cc1cc(NC(=O)COC(=O)C2CCN(S(=O)(=O)c3ccccc3)CC2)c([N+](=O)[O-])cc1C,3.5,1,-4,6345,-14,2,-14
O=C(CCc1nc2ccccc2c(=O)[nH]1)Nc1cc(C(F)(F)F)ccc1N1CCOCC1,4.5,4,7,5391,-25,7,-3
N#CC1=C2N=C(N)c3ccccc3N2C2=C(C(=O)CCC2)C1c1ccc(F)cc1 (configuration not stated),3.3,12,1,4842,nt,-7,8
CCCCCCNc1nc(NCc2ccco2)nc(OCC)n1,5.1,-19,-3,2742,-15,nt,nt
CC1(C)Cc2c(sc(NC(=O)C(=O)N3CCOCC3)c2C#N)CO1,5.0,8,-6,5408,-24,-4,-4
O=C(NCCCN1CCN(CCCNC(=O)c2cccc([N+](=O)[O-])c2)CC1)c1cccc([N+](=O)[O-])c1,-0.5,4,1,7833,1,-3,5
NC(=S)Nc1nc2ccccc2s1,-1.1,3,1,4358,-27,13,16
O=C(CN(Cc1ccc2c(c1)OCO2)C(=O)CNC(=O)c1ccco1)NC1CCCCC1,0.1,8,-12,4552,-8,nt,nt
COc1cc(/C=N/NC(=O)c2ccc(-n3cccc3)cc2)ccc1O,nt,nt,4,2229,-23,nt,nt
CC(C)(C)SCCNC(=O)Nc1ccccc1,6.5,-2,4,2530,-35,16,5
CCCCCC(O)C=CC1C(O)CC(O)C1CC=CCCCC(=O)OC (configuration not stated),10,-2,nt,nt,nt,6,0
Cc1cc(OCC(=O)c2ccc(F)cc2)ccc1N1C(=O)CCC1=O,0.8,-1,-8,4752,-9,nt,nt
Cc1ccc(CN2C(=O)N/C(=C/c3cc(C)n(-c4ccccn4)c3C)C2=O)cc1,7.8,0,2,9251,-43,1,7
O=C(C1CCC(CNS(=O)(=O)c2ccccc2)CC1)N1CCCCC1 (configuration not stated),5.2,7,-5,3245,-13,14,5
Cc1cc(C)c(/C=C(\C#N)C(N)=S)c(C)c1,3.0,1,-3,2140,-49,-2,0
C[C@H]1CN([C@@H](C)CO)C(=O)c2cccc(NC(=O)Nc3ccc(C(F)(F)F)cc3)c2O[C@@H]1CN(C)S(=O)(=O)c1ccccc1,-1.3,4,nt,2983,2,-7,2
NS(=O)(=O)c1ccc(CCNC(=O)c2ccc(C(=O)c3ccccc3)cc2)cc1,-6.0,-5,-11,4133,-16,-4,-7
Cc1ccc(/C=c2\sc3nc(-c4ccccc4Br)nn3c2=O)o1,nt,nt,11,3367,-20,nt,nt
COc1ccc(C(=O)Nc2nnc(S(=O)(=O)N3CCOCC3)s2)cc1,7.4,6,0,5242,-11,4,7
O=[N+]([O-])c1ccc(C(=S)N2CCC(Cc3ccccc3)CC2)cc1,4.6,1,-6,2071,1,0,8
CCc1ccc2c(c1)/C(=N/OC)C(=O)N2,nt,nt,-1,2048,-18,nt,nt
O=C(CC(=O)N/N=C/c1ccccc1)NCc1ccccc1,nt,nt,-6,4174,-20,nt,nt
COc1cc(/C=C2\OC(=O)c3c(OC)cccc32)ccc1O,2.1,-9,-2,2670,-47,nt,nt
C=CCNC(=O)C(C#N)c1nc2ccccc2nc1N1CCCCCC1 (configuration not stated),21,-11,-3,2614,-3,-6,-6
CC1(C)CC(=O)C=C(Nc2ccc(C(=O)O)c(O)c2)C1,-2.7,-2,-5,2744,-8,nt,nt
COCC=CC1=CC2=CC(=O)C(C)(OC(=O)c3cnc4ccccc4n3)C(=O)C2=CN1C1CC1 (configuration not stated),8.0,-13,nt,nt,nt,11,2
COc1ccccc1-c1ccc2nnc(SCC(=O)N3CCCC3)n2n1,0.8,-1,6,3770,-1,1,4
CCOC(=O)C(=NNc1ccc(C)cc1)S(=O)(=O)c1ccc(Cl)cc1,-4.3,-8,nt,nt,nt,1,18
O=C(COC(=O)Cc1ccsc1)Nc1cccc(Cl)c1,7.1,6,nt,5285,-15,11,7
O=C(Nc1cnn(Cc2ccc(F)cc2)c1)c1cc(-c2ccco2)on1,0.1,1,5,5409,-22,13,12
O=C(CN1C(=O)CCSc2ccccc21)N1CCC2(CC1)OCCO2,2.3,3,-16,11384,-20,1,3
Cc1ccc(NC(=O)C2C(c3ccccc3)C2(Cl)Cl)c(C)c1 (configuration not stated),-0.3,4,-16,8529,-18,8,7
O=C(Nc1ccccc1OC(=O)N1CCCCC1)N1CCCCC1,1.1,-4,-12,7462,-19,-4,6
C/C(=N\NC(=O)c1ccccc1)c1c(C)[nH]n(-c2ccccc2)c1=O,nt,nt,-8,3172,-17,nt,nt
Cc1ccccc1NC(=O)Cc1cn(C)c2ccccc12,2.5,2,-5,9236,-19,7,4
COc1ccccc1CN1CCSCC1,2.6,8,-1,10448,-15,5,1
COc1cccc(NS(=O)(=O)c2ccc3c(c2)NC(=O)C(C)C(=O)N3)c1 (configuration not stated),-6.4,-3,0,5284,-6,2,8
CCCOc1ccc(C(=O)NCc2cccnc2)cc1,4.3,8,2,9483,-24,1,5
COC(=O)c1nn(-c2ccc3c(c2)OCO3)cc1O,-0.2,-10,5,10850,-68,-4,12
CN(Cc1ncc[nH]1)Cc1cn(-c2ccccc2)nc1-c1ccc2c(c1)OCO2,2.5,10,-11,4374,-18,6,1
COc1ccc(S(=O)(=O)N(C)C)cc1NC(=O)CSc1nnc(-c2cccnc2)o1,11,2,-10,4296,-21,1,-4
O=C(COC(=O)c1ccc2ncsc2c1)NC(=O)c1ccccc1,5.4,4,-4,4462,-24,6,0
CC1Cc2nc(SCC(=O)OCc3ccccc3)n(C)c(=O)c2S1 (configuration not stated),0.1,7,10,6199,-18,7,7
CCOC(=O)N1CCN(C(=O)c2ccc3c(=O)n(-c4ccc(OC)cc4)c(=S)[nH]c3c2)CC1,-0.6,9,9,3148,-2,nt,nt
Cc1ccc(N(CC(=O)NCc2ccc(F)cc2)C(=O)CCC(=O)Nc2ccccn2)cc1C,2.7,-8,-1,5722,-27,7,5
CCCCn1c(CCn2nc(C)c(Br)c2C)n[nH]c1=S,3.2,-3,0,23887*,-33,1,3
Cc1cc(C(=O)N2CCN(CCc3ccccc3)CC2)no1,3.9,11,17,10195,-10,8,7
O=[N+]([O-])c1ccc(-c2nc(NCc3cccnc3)c3ccccc3n2)cc1,1.0,-1,-1,3779,-15,-4,-6
Cn1c2ccc(F)cc2c2ncn(Cc3ccco3)c(=O)c21,2.3,2,2,23973*,-11,-3,5
C/C(Cl)=C/Cn1c(SCCN2CCOCC2)nc2c1c(=O)[nH]c(=O)n2C,-5.1,-6,9,3026,-7,8,12
CSCCC(NC(=O)/C(=C/c1ccco1)NC(=O)c1ccc(Br)o1)C(=O)O (configuration not stated),-0.1,3,-2,3932,-7,2,-5
O=C(O)c1cc(-c2ccc(C=NN3C(=O)C4C5C=CC(CC5)C4C3=O)o2)ccc1Cl (configuration not stated),8.5,15,nt,nt,nt,-2,2
Cc1csc(NC(=O)c2cc(-c3ccco3)nc3ccccc23)n1,0.6,-10,-6,2509,7,7,-1

# The last 2 entries of the part before come first, to join the parts:
SMILES,RN4220 kill,ugtP null kill,BJeLR viability,Autofluor counter,PrP 5UTR inh,Mtb hypoxia inh,Mtb hypoxia inh growth
O=C(O)c1cc(-c2ccc(C=NN3C(=O)C4C5C=CC(CC5)C4C3=O)o2)ccc1Cl (configuration not stated),8.5,15,nt,nt,nt,-2,2
Cc1csc(NC(=O)c2cc(-c3ccco3)nc3ccccc23)n1,0.6,-10,-6,2509,7,7,-1
O=C(c1cccs1)N1N=C(c2ccc(O)cc2)CC1c1ccccc1 (configuration not stated),3.2,-2,-21,2122,-16,10,6
Cc1ccc2cccc(Oc3ncnc4scc(-c5ccccc5)c34)c2n1,-11,17,-4,2112,-6,18,4
c1ccc(-c2n[nH]c(-c3ccccc3)c2-c2nc3ccccc3[nH]2)cc1,-1.0,6,-5,3840,-26,4,-5
O=C(O)c1ccc2[nH]c3c(c2c1)CCCC3,1.2,-5,3,3197,7,-10,-1
Cc1ccc(O)c(C(=O)c2cc(C#N)c(=O)n(-c3nccs3)c2)c1,-15,11,8,3699,-21,-8,-10
